Source: PubChem BioAssay (Southern Research Institute)
Mtb H37Rv: Confirmatory growth inhibition assay against Mycobacterium tuberculosis H37Rv, potency (AID 1949); 100,000 tested, 1.6% active; one-dose inhibition, % at 10 µg/mL; IC50 in µg/mL for titrated hits; most inactive calls were filed without a number and no value below 0 was filed;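 active = confirmed in a dose series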;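 also: bacteria grown 7 days with compound before Alamar blue readout; 0% = untreated bacteria and 100% = reference antibiotic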
An asterisk follows results filed as active; i = inactive.

SMILES,Mtb H37Rv
CCOC(=O)Cc1nnc(NC(=O)CSc2nnc3c(n2)[nH]c2ccccc23)s1,i
Cc1cccc(-c2c3c(=O)n(C)c(=O)n(C)c3c3nnc4ccccc4n23)c1,i
Cc1occc1C(=O)N1CCN(c2ncccn2)CC1,i
COc1ccc(OC)c(N(CC(=O)NC2CC2)S(C)(=O)=O)c1,i
Cc1nc(-c2ccc(NS(=O)(=O)c3ccc(F)cc3)cc2)cs1,i
N/C(=N\OC(=O)N1c2ccccc2Sc2ccccc21)c1ccccc1,20%
COc1ccc(OC)c(S(=O)(=O)Nc2ccc(C(N)=O)cc2)c1,i
Cc1c(NC(=S)NC(=O)c2cccc(I)c2)cccc1C(=O)O,i
CCOc1ccc(C2C(C(=O)c3ccco3)=C(O)C(=O)N2CCCn2ccnc2)cc1 (stereo unspecified),i
COC(=O)CSC1=C(C#N)C(c2ccc3c(c2)OCO3)C2=C(CCCC2=O)N1 (stereo unspecified),i
O=C(O)COc1ccc(NC(=O)COc2ccc(Cl)cc2)cc1,i
Cc1ccc(S(=O)(=O)NCCSc2nnnn2C)cc1,i
CCOC(=O)Nc1ccccc1C(=O)N1CCCCC1,3%
OC1CCN(C(=S)NC2CC2)CC1,i
CC(=O)c1cccc(NC(=O)CCC2CCCC2)c1,i
CCOC(=O)c1sc(NC(=O)c2cc(OC)c(OC)c(OC)c2)c(C(N)=O)c1C,i
CCc1ccc(-c2csc(NC(=O)Cc3ccc(OC)cc3)n2)cc1,1%
CNS(=O)(=O)c1ccc(NC(=O)C2c3ccccc3Oc3ccccc32)cc1,i
Cn1c(C(Cc2ccccc2)NC(=O)c2cccs2)nc2ccccc21 (stereo unspecified),i
CC12CCC(C(=O)N3CCN(c4ncccn4)CC3)(CC1=O)C2(C)C (stereo unspecified),i
CN1CCN(C(=O)Cc2c(F)cccc2Cl)CC1,i
CSc1ccccc1NC(=O)c1ccccc1N(C)S(=O)(=O)c1ccccc1,i
Cc1ccc(Nc2cc(-n3nc(C)cc3C)ncn2)cc1,1%
c1ccc2[nH]c(CCn3cncn3)nc2c1,i
Cc1ccc(SCC(=O)Nc2ccc(C)cc2C)cc1,i
Cc1ccc(NC(=O)CN2C(=O)c3ccccc3C2=O)nc1,i
CCN1C(=O)C2CC(C)=C(C)CC2C1=O (stereo unspecified),i
Nn1c(=O)c2ccccc2n2c(=S)[nH]nc12,i
COc1ccccc1C(=O)N(CCCCN1C(=O)c2ccccc2C1=O)c1ccc(Cl)cc1,i
CS(=O)(=O)N(CC(=O)Nc1cc(C(F)(F)F)ccc1Cl)c1ccc(Cl)c(Cl)c1,2%
CCCCCCNC(=O)C(=O)Nc1ccc(OCCCC)cc1,i
Cc1ccc(NC(=O)NNC(=O)C(C)(C)O)cc1C,0%
CCOc1cccc2sc(NC(=O)c3ccc(S(=O)(=O)N4CCCC4)cc3)nc12,i
COc1cc(CN2CCN(c3cccc(C(F)(F)F)c3)CC2)c([N+](=O)[O-])cc1OC,i
Cc1ccc(C(=O)Nc2ccc(NC(=O)c3cccs3)cc2)c(C)c1,i
O=S(=O)(c1ccc2oc3ccc(S(=O)(=O)N4CCCC4)cc3c2c1)N1CCCC1,i
CCCCSc1nnc(-c2ccc(Cl)cc2Cl)o1,i
O=C(NC(=S)Nc1ccc2oc(-c3cc(F)c(F)cc3Cl)nc2c1)c1ccccc1[N+](=O)[O-],i
Cc1cc(=O)oc2cc(OCC(=O)c3ccc(OC(=O)c4ccccc4)cc3)ccc12,i
CC(C)c1ccc(NC(=O)CN(C)S(=O)(=O)c2ccccc2)cc1,5%
COc1ccccc1CNC(=O)C(=O)Nc1ccc2c(c1)OCO2,i
C=CCN(CC=C)C(=S)Nc1cc(Cl)ccc1OC,i
CC(C)(O)C(=O)NNC(=O)NC1CCCCC1,1%
CC1(C)Cc2c(sc3nc(NCc4ccccc4)n4c(=S)[nH]nc4c23)CO1,2%
NC(=S)Nc1nc(-c2ccccc2)cs1,2%
CCOC(=O)CCc1c(C)c2ccc(OCC(=O)OCc3ccccc3)c(C)c2oc1=O,21%
COc1cc(C(=O)Nc2oc(-c3ccccc3)c(-c3ccccc3)c2C#N)cc(OC)c1OC,3%
CCCCC(=O)Nc1ccc(NC(=O)c2cc(Cl)cc(Cl)c2OC)cc1OC,i
CN1CCN(C(CC(=O)Nc2ccc(Cl)cc2)C(=O)O)CC1 (stereo unspecified),i
CN(C)c1ccc(/C=N/N=C2/NC(=O)C(Cc3cccc(C(F)(F)F)c3)S2)cc1 (stereo unspecified),i

Next part.
SMILES,Mtb H37Rv
CCOc1cc(C)c(Cl)cc1S(=O)(=O)N1CCCCC1,i
COc1ccccc1C(=O)Nc1ccccc1,i
CC1=C(C(=O)OC(C)C)C(c2ccccc2Cl)C2=C(CC(c3cccs3)CC2=O)N1 (stereo unspecified),19%
COc1ccc(S(=O)(=O)Nc2ccc(Cl)c(Cl)c2)cc1Br,i
N#C/C(=C\Nc1ccc(Cl)c(C(F)(F)F)c1)C(N)=S,i
CCCn1nnc(NC(=O)c2ccc(-c3cc(Cl)ccc3Cl)o2)n1,i
N/C(=N\OC(=O)COc1ccccc1)c1ccc(Cl)cc1,2%
O=C1c2cccc3cccc(c23)C(=O)N1CCN1CCN(CC(O)COCc2ccc(Cl)cc2)CC1 (stereo unspecified),3.1µg/mL*
CN(C)c1ccc(C2C=C(c3ccc(F)cc3)Nc3ncnn32)cc1 (stereo unspecified),45%
Cc1ccc(O)c(NC(=O)c2ccc(Br)o2)c1,2%
CCOc1ccc(NC(=O)CCCOc2ccc(Cl)cc2Cl)c([N+](=O)[O-])c1,i
COc1ccc2oc(=O)c(C(=O)N3CCN(c4ccc(C)cc4C)CC3)cc2c1,i
Cn1cc(C2CC(=O)N(c3c(Cl)cccc3Cl)C2=O)c2ccccc21 (stereo unspecified),i
CC(=O)NC(=S)Nc1ccccc1N1CCN(C(=O)c2ccccc2)CC1,i
O=S(=O)(Nc1cccc(C(F)(F)F)c1)c1ccc(-c2ccccc2)cc1,4%
Cc1ccc(OCC(=O)Nc2nc(C)cc(C)n2)cc1,i
CCOC(=O)C1=C(C)N=c2s/c(=C\c3ccc(OC)cc3)c(=O)n2C1c1ccccc1Cl (stereo unspecified),i
CC(Nc1n[nH]c(=O)[nH]c1=O)C(=O)N/N=C/c1c[nH]c2ccccc12 (stereo unspecified),2%
COc1cccc2c(=O)[nH]c(C(Cl)(Cl)Cl)nc12,i
COc1ccc(N2CCN(c3nc(NC(C)(C)C)nc(OC)n3)CC2)cc1,i

Another view of some results above:
> O=S(=O)(Nc1cccc(C(F)(F)F)c1)c1ccc(-c2ccccc2)cc1
  Mtb H37Rv: 4%

> Cc1ccc(OCC(=O)Nc2nc(C)cc(C)n2)cc1
  Mtb H37Rv: i

> CCOC(=O)C1=C(C)N=c2s/c(=C\c3ccc(OC)cc3)c(=O)n2C1c1ccccc1Cl (stereo unspecified)
  Mtb H37Rv: i

> CC(Nc1n[nH]c(=O)[nH]c1=O)C(=O)N/N=C/c1c[nH]c2ccccc12 (stereo unspecified)
  Mtb H37Rv: 2%

Next part.
SMILES,Mtb H37Rv
O=C(NC1CCS(=O)(=O)C1)c1ccc(S(=O)(=O)N2CCCCC2)cc1 (stereo unspecified),i
CCOC(=O)C1=CN(C)C=C(C(=O)OCC)C1c1cc(Br)c(O)c(OC)c1,i
Cc1ccc(N(CC(=O)Nc2cccc3ccccc23)S(C)(=O)=O)c(C)c1,0%
COC(=O)c1cccc(NC(=O)/C(=C\c2ccccc2)NC(=O)c2ccc(Br)cc2)c1,4%
COc1ccc(CSc2n[nH]c(C)n2)cc1[N+](=O)[O-],i
c1ccc(OCCCc2nc(-c3cccnc3)no2)cc1,i
Oc1ccc(-c2[nH]ncc2Oc2ccc(-c3ccccc3)cc2)c(O)c1,i
Oc1c(C2=NCCNC(C(F)(F)F)=C2)ccc2ccccc12,6%
OC1(c2ccccc2)CN2CCC1CC2 (stereo unspecified),i
C=CCn1c(SCC(=O)N2CCN(c3ccccc3)CC2)nnc1-c1ccc([N+](=O)[O-])cc1,i
COc1ccc(COC(=O)C2=C(C)NC3=C(C(=O)CCC3)C2c2ccc(C(F)(F)F)cc2)cc1 (stereo unspecified),i
Cc1ccc(NC(=O)Cn2cnc3ccccc3c2=O)cc1C,i
Cc1c(-c2ccc(Cl)cc2)nc2ccccc2c1C(=O)NCC(C)C,2%
CN1CCN(CCCOc2ccccc2-c2ccccc2)CC1,2%
CNC(=O)c1cc(I)c(OCc2ccccc2)c(OC)c1,i
Cc1ccc(-c2nnc(SCC#CCOC(=O)c3ccco3)o2)cc1,23%
C=CCn1c(N)cc(=O)nc1SCC(=O)N1CCCCC1,1%
CC(=O)N(c1ccc(N(C(C)=O)S(=O)(=O)c2cccs2)cc1)S(=O)(=O)c1cccs1,i
COCCCNC(=O)/C(=C/c1cccc([N+](=O)[O-])c1)NC(=O)c1ccc(OC)cc1,i
COc1cc(-c2nc3ccccc3[nH]2)c([N+](=O)[O-])cc1OC,i
O=C1CC(c2ccccc2)Cc2nc(NCc3ccccc3)ncc21 (stereo unspecified),i
CCSc1ccccc1C(=O)NCc1cccnc1,i
CCOc1ccc(S(=O)(=O)NC2CCCC2)c2ccccc12,5%
COc1ccc(Cc2nnc(SCC(=O)Nc3cccc(Cl)c3C)n2C)cc1,i
Nc1nonc1-c1nc2ccccc2n1CC(=O)Nc1ccccc1I,i
O=C(c1c[nH]c2ccccc12)C(O)C(c1ccccc1)N1CCCCC1 (stereo unspecified),i
CCOC(=O)c1c(NC(=O)C2(S(=O)(=O)c3ccccc3)CC2)sc(C)c1C,10%
CCOc1ccccc1OC(=O)c1ccccc1,11%
CC12CN(NC(=O)Cc3ccccc3)C3(C#N)CC1CCC23C (stereo unspecified),i
O=C(O)c1ccc(NC(=O)C2C3C=CC(C3)C2C(=O)O)cc1 (stereo unspecified),i
Cc1cc(C)c(NS(=O)(=O)c2ccc(NC(=O)CCC(=O)O)cc2)c(C)c1,1%
Cc1cc(C)c(-n2c(O)c(/C=C3\C=CC=N3)c(=O)[nH]c2=O)c(C)c1,0.13µg/mL*
O=C(CC1CCCCC1)Nc1cc(C(F)(F)F)ccc1Cl,i
Cc1cccc(C(=O)NCC2CCN(C(=O)c3cccc(C)c3)CC2)c1,i
CCOc1ccc(C(=O)Nc2nc(C)c(C(=O)N(C)C)s2)cc1,i
O=C(c1ccc(C(=O)N2CCC(c3ccccc3)CC2)s1)N1CCC(c2ccccc2)CC1,i
COc1ccc(/C(N)=N/OC(=O)CSc2ccc(C)cc2)cc1,7%
Cc1c(OCC(=O)N(C)C)ccc2c3c(c(=O)oc12)CCCCC3,i
Cn1ccnc1C(O)(c1ccccc1)c1nccn1C,5%
Cn1c(=O)c2ncn(CC(=O)Nc3ccc(C#N)cc3)c2n(C)c1=O,i
CC1(C)Cc2cc3c(cc2-c2nnc(-c4ccccc4)n21)OCCO3,i
CCCNS(=O)(=O)c1ccc(CCC(=O)NCC)cc1,i
COc1cccc(C(=O)Nc2cccc(-c3cn4ccccc4n3)c2)c1,i
CC(C)OC(=O)c1c(F)c(F)c(F)c(F)c1F,i
O=C(NCCSC1CCCCC1)c1ccccc1I,i
CCOC(=O)c1sc(NC(=O)c2ccc3c(c2)OCCO3)c(C#N)c1C,1%
COc1ccc(CCNS(=O)(=O)c2cccs2)cc1,i
CCOC(=O)C1CCN(C2CC(=O)N(c3ccc(N4C(=O)CC(N5CCC(C(=O)OCC)CC5)C4=O)cc3)C2=O)CC1 (stereo unspecified),i
CC(NC(=O)C1CCCCC1)c1ccc2c(c1)OCCO2 (stereo unspecified),i
S=C(NCCc1ccccc1)N1CCC2(CC1)OCCO2,i

(continued)
SMILES,Mtb H37Rv
CC(C)OC(=O)c1ccc(NC(=O)Cc2cccs2)cc1,9%
CS(=O)(=O)Nc1ccc(C(=O)NCCSC2CCCCC2)cc1,i
CC(C)C(=O)Nc1ccc(C(=O)NNC(=O)COc2ccc(Cl)cc2Br)cc1,i
COC(=O)Cc1ccc(NC(=S)NC(C)(C)C)cc1,i
COc1cccc(OCCCCOc2cccc(OC)c2)c1,i
CC1(C)COC(Nc2ccc(Cl)cc2)=N1,5%
CCOc1ccc(OCCCN2CCN(C)CC2)cc1,i
Cc1cc(C)cc(C(=O)NC(=S)Nc2sc3c(c2C(N)=O)CCCC3)c1,i
Cc1cc(OC(C)c2ccccc2)c2c3c(c(=O)oc2c1)CCC3 (stereo unspecified),i
COCCNC(=S)NNC(=O)CCc1ccc(OC)cc1,i
COc1ccc(/C(N)=N/OC(=O)c2ccc(C)c(Cl)c2)cc1OC,1%
CC1CC(C)CN(C2CCN(C(=O)c3cccc(Cl)c3)CC2)C1 (stereo unspecified),i
CCOc1cc(C(=O)Nc2ccc3nn(-c4ccc(F)cc4)nc3c2)cc(OCC)c1OCC,i
O=C(NC(=S)Nc1ccc(S(=O)(=O)NCCc2ccccc2)cc1)C1CC1,5%
COC(=O)c1ccc(NC(=S)N2CCCCCC2)cc1,1%

Among those listed so far, these contain a COOH group.
SMILES,Mtb H37Rv
Cc1c(NC(=S)NC(=O)c2cccc(I)c2)cccc1C(=O)O,i
O=C(O)COc1ccc(NC(=O)COc2ccc(Cl)cc2)cc1,i
CN1CCN(C(CC(=O)Nc2ccc(Cl)cc2)C(=O)O)CC1 (stereo unspecified),i
O=C(O)c1ccc(NC(=O)C2C3C=CC(C3)C2C(=O)O)cc1 (stereo unspecified),i
Cc1cc(C)c(NS(=O)(=O)c2ccc(NC(=O)CCC(=O)O)cc2)c(C)c1,1%

Not all compounds are listed; rates above refer to the full screens.
